KCNQ2 pot: potentiators of rat KCNQ2 potassium channel; O88943; CHO-K1 KCNQ2, FluxOR thallium flux fluorescence; hits give high values; B-score at 10 µM; 310,000 tested, 0.54% active; AID 2239;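 active means fluorescence ratio B-score at least 3 SD of library B-scores, with initial fluorescence B-score within 3 SD, cut at about 5.3 in these data; same plate scores as AID 2156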;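 further: B-score of peak minus minimum over baseline fluorescence ratio after K+ and Tl+ stimulus; positive B-score means potentiation of KCNQ2 with more thallium influx and brighter signal; only the inactives scoring about 0 or higher are listed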
Target sequence (O88943 whole entry, looked up): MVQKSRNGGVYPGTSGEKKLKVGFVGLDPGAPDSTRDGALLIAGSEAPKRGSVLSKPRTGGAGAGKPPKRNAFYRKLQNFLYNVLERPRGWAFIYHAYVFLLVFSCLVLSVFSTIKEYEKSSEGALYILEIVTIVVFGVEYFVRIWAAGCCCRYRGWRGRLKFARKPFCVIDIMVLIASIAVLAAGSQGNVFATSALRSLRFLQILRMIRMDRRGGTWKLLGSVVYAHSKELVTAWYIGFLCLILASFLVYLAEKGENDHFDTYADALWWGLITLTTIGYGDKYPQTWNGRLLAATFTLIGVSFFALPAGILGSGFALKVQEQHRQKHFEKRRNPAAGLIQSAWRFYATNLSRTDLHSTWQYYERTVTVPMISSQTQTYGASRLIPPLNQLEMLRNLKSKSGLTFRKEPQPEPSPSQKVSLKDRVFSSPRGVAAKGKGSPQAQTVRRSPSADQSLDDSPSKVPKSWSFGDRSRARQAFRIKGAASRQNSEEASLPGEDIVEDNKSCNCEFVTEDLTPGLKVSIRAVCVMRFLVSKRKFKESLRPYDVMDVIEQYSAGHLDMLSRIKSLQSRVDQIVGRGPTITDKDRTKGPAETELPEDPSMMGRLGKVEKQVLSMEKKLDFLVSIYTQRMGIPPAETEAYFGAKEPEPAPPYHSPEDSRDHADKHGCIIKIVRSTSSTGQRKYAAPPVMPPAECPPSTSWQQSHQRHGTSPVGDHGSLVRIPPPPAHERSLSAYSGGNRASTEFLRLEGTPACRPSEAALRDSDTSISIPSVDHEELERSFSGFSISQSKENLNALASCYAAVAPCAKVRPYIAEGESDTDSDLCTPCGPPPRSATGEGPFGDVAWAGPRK
KCNQ2 pot baseline: recorded beside KCNQ2 pot, whose call it bears; B-score; compound at 10 µM; measured here: initial fluorescence intensity artifact check;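 brightness before thallium and not channel activity; 0 = typical well and far values either way flag optical interference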
Numbers without * were called inactive; x = no result given. A portion of the library (hit frequency here may not be typical).

Preview:
SMILES	KCNQ2 pot	KCNQ2 pot baseline
COc1cc(C(=O)NC(CCSC)C(=O)OCc2cc([N+](=O)[O-])cc3c2OCOC3)cc(OC)c1OC (stereo not given)	0.3	-0.51
C=C(C)CNC(=S)/N=c1\scc(C)n1CC	0.77	0
O=Cc1nc(-c2ccccc2Cl)n2ccccc12	1.1	0.03
COc1ccc2cc(Br)ccc2c1CC(=O)NC(C)C	0.19	-1.1
O=C(CSc1nnc(-c2ccc(O)cc2)n1Cc1ccco1)c1cccs1	0.02	-1.7
COc1ccc(N2CCN(C(CNC(=O)OCc3ccccc3)c3ccco3)CC2)cc1 (stereo not given)	0.38	-2.8

The list itself, repeating the preview:
SMILES	KCNQ2 pot	KCNQ2 pot baseline
COc1cc(C(=O)NC(CCSC)C(=O)OCc2cc([N+](=O)[O-])cc3c2OCOC3)cc(OC)c1OC (stereo not given)	0.3	-0.51
C=C(C)CNC(=S)/N=c1\scc(C)n1CC	0.77	0
O=Cc1nc(-c2ccccc2Cl)n2ccccc12	1.1	0.03
COc1ccc2cc(Br)ccc2c1CC(=O)NC(C)C	0.19	-1.1
O=C(CSc1nnc(-c2ccc(O)cc2)n1Cc1ccco1)c1cccs1	0.02	-1.7
COc1ccc(N2CCN(C(CNC(=O)OCc3ccccc3)c3ccco3)CC2)cc1 (stereo not given)	0.38	-2.8
C=CCSc1nnc2c(n1)OC(c1ccccn1)N(C(C)=O)c1ccccc1-2 (stereo not given)	0.92	-0.51
CCn1c(SCC(=O)Nc2ccc3c(c2)OCCO3)nnc1-c1ccco1	2.1	-0.8
Cc1ccc(SCCCn2cncn2)cc1	0.64	0.89
Cc1ccccc1CSc1nc2[nH]ncc2c(=O)[nH]1	1.3	-1.7
Cc1c(CN2CCc3c([nH]c4ccccc34)C2CC(C)C)cnn1C (stereo not given)	0.72	0.03
Cc1ccc(CSc2nc3c(cc2C#N)CCC3)cc1	0.72	-0.47
C=CCNC(=O)COC(=O)COc1ccc(Cl)cc1C	0.31	0.69
N#Cc1ccc(NC(=O)CCc2ccc(S(=O)(=O)N3CCOCC3)cc2)cc1	1	0.48
COc1cc(CNn2c(C)n[nH]c2=S)cc(Br)c1OCC(=O)NC(C)(C)C	1.1	-0.07
Cc1ccccc1NC(=O)COC(=O)/C=C/c1cn(-c2ccccc2)nc1-c1cccnc1	0.48	0.05
CCN(CC)C(=O)Cc1cn(C)c2ccccc12	0.32	1
COc1ccc(S(=O)(=O)NC(N)=NCCc2ccccc2)cc1	0.68	0.45
Cc1c(C(=O)OCCN2CCCCC2)oc2ccccc12	1.5	0.95
COc1ccc(OC)c(S(=O)(=O)NCc2ccccn2)c1	0.43	1.9
CC(OC(=O)/C=C/c1cccc(F)c1)C(=O)NC1CCCCC1C (stereo not given)	0.45	0.63
O=C(O)c1cc([N+](=O)[O-])ccc1NCCc1ccccc1	2.8	0.59
Cc1csc2c(N3CCN(C(=O)Nc4ccccc4)CC3)ncnc12	2.3	-0.56
CCC(C(=O)NC(CC(=O)O)c1ccc(Cl)cc1)c1ccccc1 (stereo not given)	0.87	-0.44
COC(=O)CNC(=O)C(Cc1c[nH]c2ccccc12)NC(=O)OC(C)(C)C (stereo not given)	0.1	-0.13
SMILES	KCNQ2 pot	KCNQ2 pot baseline
CC(=O)Nc1ccc(S(=O)(=O)NCC(=O)OCC(=O)N2CCN(c3ccccc3)CC2)cc1	1.6	-1.6
CCOc1ccccc1OCCCC(=O)NC1=NCCS1	1.2	0.21
CC(=O)Nc1nc(-c2cccc3ccccc23)cs1	0.01	-0.06
COc1ccc(CNS(=O)(=O)c2ccc(-c3ccc(=O)[nH]n3)o2)cc1	0.17	-1.6
O=C(/C=C/c1ccco1)Nc1ccc2c(c1)OCCO2	0.81	1.1
CC(=O)N(C)c1ccc(NC(=O)c2ccco2)cc1	0.08	1.5
COc1ccc(N=C2S/C(=C\c3cc(C)n(C)c3C)C(=O)N2CC(C)C)cc1	0.22	0.64
C/C(=N\NC(=O)c1cccc(S(=O)(=O)N2CCCC2)c1)c1ccc(F)cc1	0.51	-0.69
O=C(NC(C(=O)N/N=C/c1ccncc1)c1n[nH]c(=O)c2ccccc12)c1ccccc1 (stereo not given)	0.14	2
O=C(NCc1ccccc1)c1cc(-c2cccc(O)c2)on1	0.01	-1.3
CCOc1ccc(C2C=C(c3ccccc3)Nc3nnnn32)cc1 (stereo not given)	0.98	-1.3
COc1ccc(-n2nc3c(c2NC(=O)c2ccccc2S(=O)(=O)C(F)F)CS(=O)(=O)C3)cc1	0.19	0.07
O=[N+]([O-])c1ccc(S(=O)(=O)Nc2ccncc2)cc1	0.27	0.37
COC(=O)C1(C)NC(c2ccc(O)cc2)C2C(=O)N(c3ccccc3)C(=O)C21 (stereo not given)	0.48	0.33
C=C1N(C)c2cc([N+](=O)[O-])c(N)cc2C1(C)C	0.51	-0.8
CC(C)CCn1c(N2CCOCC2)nc2c1c(=O)n(CC(N)=O)c(=O)n2C	0.83	0.02
O=C(Cn1nnc(-c2ccccc2)n1)N=Nc1c(O)[nH]c2ccccc12	0.68	0.17
Cc1cc(C)nc(NC(N)=NC2CCCCC2)n1	2.8	0.01
Cc1nn(C)c(C)c1S(=O)(=O)N1CCC(C(=O)NC2CCCCC2)CC1	1.5	-0.26
Cc1cc(NC(=O)c2ccc(S(=O)(=O)N3CCOCC3)cc2)nc2c1c(=O)oc1ccccc12	0.7	0.5
O=C(Cn1ncc2ccccc21)N1CCc2ccccc21	0.1	-0.61
Cc1cccc(C(=O)NC2CC(C)(C)NC(C)(C)C2)c1	1.2	0.09
C/C(=N\NC(=S)Nc1cccc(C)c1)c1cc2ccccc2o1	5.1	-0.39
O=S(=O)(c1cccc(C(F)(F)F)c1)N1CCN(c2cnccn2)CC1	0.61	-2.7
O=c1[nH]c(SCc2c(Cl)cccc2Cl)nc2ccccc12	0.05	-1.1

Profiles as entered above.
Cc1cc(C)nc(NC(N)=NC2CCCCC2)n1 in the list: KCNQ2 pot = 2.8; KCNQ2 pot baseline = 0.01
COc1ccc2cc(Br)ccc2c1CC(=O)NC(C)C in the list: KCNQ2 pot = 0.19; KCNQ2 pot baseline = -1.1
CCN(CC)C(=O)Cc1cn(C)c2ccccc12 in the list: KCNQ2 pot = 0.32; KCNQ2 pot baseline = 1

Remaining list, next part
SMILES	KCNQ2 pot	KCNQ2 pot baseline
Cc1cc(C)n2c(SCC(=O)Nc3ccc(F)cc3F)nnc2n1	0.18	-1.2
Fc1ccc(CSc2nnc(-c3ccccn3)o2)cc1	0.9	0.04
Cc1ccc(-n2ncc3c2CCCC3NC(=O)CCC2=NNC(=O)CC2)cc1C (stereo not given)	0.81	3
CC(=O)Nc1ccc(OC(=O)c2cccnc2)cc1	1.3	3.1
NC(=O)C1=C[C@H](C2CCCCC2)C[C@H](OCc2ccc(CO)cc2)O1	1.2	-0.94
CCn1c(SCc2nc3ccccc3c(=O)[nH]2)nnc1C(C)NC(=O)c1ccccc1 (stereo not given)	2.5	-2.1
CC(CSc1nnnn1-c1ccccc1)Cn1c(N2CCN(C)CC2)nc2c1c(=O)[nH]c(=O)n2C (stereo not given)	0.1	1.2
O=C(CN1C(=O)c2ccc([N+](=O)[O-])cc2C1=O)NCCC1=CCCCC1	0.68	0.32
CCOC(=O)N1CCC(NC(=O)c2oc3c(c2C)-c2[nH]ncc2CC3)CC1	2.6	-0.79
CCCCCOc1ccc(C(=O)NCCC(=O)NCCCC(=O)OCC)cc1	0.42	0.64
Cc1ccc2cc3cc(C(=O)N4CCN(C(=O)c5ccco5)CC4)sc3nc2c1	0.59	0.49
C#CCNC(=O)[C@H](Cc1ccc(C(=O)c2ccccc2)cc1)NC(=O)OC(C)(C)C	0.76	-0.02
CC(CN(C(N)=O)c1ccccc1O)C(=O)O (stereo not given)	0.93	-0.53
Cc1ccc2[nH]c(C(=O)Nc3ccc(F)cc3)cc2c1	0.34	-0.47
CCOC(=O)CCn1nc(-c2ccc(Cl)cc2)cc1N	0.7	0.04
O=C1CCC/C1=C/Nc1ccc2c(c1)OCO2	0.01	0
O=C(O)c1cccc(S(=O)(=O)N2CCCC(c3nc4c(nnn4Cc4ccc(F)cc4)c(=O)[nH]3)C2)c1 (stereo not given)	1.6	-1.6
Cc1nn(CCOc2ccccc2)c(=O)n1-c1ccc(Cl)cc1	0.59	0.22
COC(=O)c1sccc1-c1ccc(C(=O)Nc2cccnc2)o1	0.22	1.1
COc1ccc(S(=O)(=O)N2CCCC(C(=O)Nc3ccc4c(c3)OCCO4)C2)cc1 (stereo not given)	1.4	0.94
CC1=CC(C)(C)N(C(=O)CSc2nnc(N)s2)c2ccccc21	1.1	1.9
CSCCCNC(=S)N(C)CC(=O)Nc1ccc(C)cc1	1.2	3.7
COc1ccc(OC)c(NC(=O)c2cccc(N3C(=O)C4C5CCC(C5)C4C3=O)c2)c1 (stereo not given)	1.5	-1.4
COc1ccccc1CN1CCCC(CN(CCN(C)C)C(=O)C2CCCC2)C1 (stereo not given)	2.2	-3.2
CCOc1ccccc1CN1CCN(Cc2ccon2)CC1CCO (stereo not given)	0.19	-0.69
SMILES	KCNQ2 pot	KCNQ2 pot baseline
Cc1ccc(C(=O)C2CCOC(C)(C)C2)cc1 (stereo not given)	0.57	1.3
Cc1cc(C)c(NC(=O)C2C3/C=C\CCCCC32)c(C)c1 (stereo not given)	12*	0.07*
O=C(COCCOCC(=O)N(c1ccccn1)C1CCCCC1)N(c1ccccn1)C1CCCCC1	0.07	0.46
O=C(CSc1nc2ccc(Nc3nc(N4CCOCC4)nc(N4CCOCC4)n3)cc2s1)N1CCOCC1	0.32	0.72
CCCCCc1ccc(-c2ccc(/C=C/C(=O)O)cc2)nc1	1.1	1.2
COc1cccc(NS(=O)(=O)c2ccc3c(c2)N(C(C)=O)CCO3)c1	0.14	-1.6
CC1CCC2(CC1)SCC(=O)N2c1ccc(F)cc1 (stereo not given)	2.4	-0.14
COc1ccc(NC(=O)N2CCCC2C(=O)NCc2ccc(F)cc2)cc1 (stereo not given)	1	1
CCn1cc(C(=O)O)c(=O)c2cc(S(=O)(=O)N3CCCCCC3)ccc21	0.3	-0.11
Cc1ccc(NC(=O)C2C3/C=C\CCCCC32)cc1 (stereo not given)	1.7	0.25
CC(=O)N1CCSc2ccc(S(=O)(=O)Nc3ccc(C)cc3)cc21	0.59	-0.9
COC(=O)c1cc2sccc2n1Cc1nc(-c2ccc(Cl)cc2)oc1C	0.14	-0.58
COCCNC(=O)CN1CCC(n2c(C)nc3cc(C(F)(F)F)ccc32)CC1	0.62	-0.31
CCC1=NN2C(=N)/C(=C\c3ccc(OCCOc4ccccc4OC)cc3)C(=O)N=C2S1	0.03	-2.4
CCCCC(=O)Nc1ccc(C(=O)Nc2nnc(COC)s2)cc1	0.18	-0.74
O=C(N/N=C/c1ccsc1)C1CC1	0.2	0.08
CC(C)Cn1c(N)c(C(=O)CSc2cc(Cl)ccc2Cl)c(=O)n(C)c1=O	1.5	-0.9
C=CCN(c1ccccc1C(=O)NCC(=O)O)S(=O)(=O)c1ccc(C)cc1	0.79	-0.28
O=C(NC12CC3CC(CC(C3)C1)C2)c1ccc(N2CCNCC2)c([N+](=O)[O-])c1	0.59	-0.86
Cc1cc(C)c(NC(=O)c2cccs2)c(C)c1NC(=O)c1cccs1	0.06	1.7
O=C1C(C=Nc2ccccc2O)=C(O)c2ccccc21	1.3	1.8
Nc1ccn([C@H]2C[C@H](O)[C@@H](CO)O2)c(=O)n1	0.86	x
O=C(NC1CCCC1)C1CC(c2ccc(F)cc2)=NO1 (stereo not given)	0.07	-0.31
Cc1cc(NC(=O)CCCN2C(=O)/C(=C/c3cccs3)SC2=S)no1	0.16	-0.02
O=C(Cc1ccccc1)Nc1ccc(N2CCCCC2)cc1	1.2	-0.36
SMILES	KCNQ2 pot	KCNQ2 pot baseline
Cc1nc(-c2ccccc2)nc2[nH]c(=O)n(-c3ccccc3)c(=O)c12	1.4	0.03
O=C(NCn1ccc(=O)[nH]c1=S)c1ccccc1	0.01	1.1
CSCCC(NC(=O)c1ccco1)C(=O)OC(C)C(=O)NC(=O)NC1CCCCC1 (stereo not given)	1.3	-2.1
Cc1nc2c(sc(=S)n2Cc2ccco2)c(=O)n1CC(=O)Nc1ccccc1Cl	0.18	-2.9
CCn1cc(C(=O)N2CCc3ccccc32)c(=O)c2cc(S(=O)(=O)N(C)C3CCCCC3)ccc21	0.12	-0.08
O=C(CSc1ccc(F)cc1)N1CCOCC1	3.4	-0.85
COc1cccc(C2NC(=O)NC(C)=C2C(=O)OCCSC)c1OC (stereo not given)	1.1	0.43
Cc1ccccc1NS(=O)(=O)c1ccc(C(=O)NCCCN2CCOCC2)cc1	0.01	0.81
Cc1ccccc1C(=O)Nc1cccc(NC(=O)c2ncn[nH]2)c1	3.2	0.95
CC1CC(C)CN(CCCNC(=O)C2CCC(=O)N2C2CCCC2)C1 (stereo not given)	0.73	0.91
O=C(CCN1C(=O)COc2ccccc21)NCCCN1CCN(c2ccccc2F)CC1	1.2	-0.97
Cc1sc2nc(C)n(/N=C/c3ccc(O)cc3O)c(=O)c2c1C	0.94	-0.88
O=C(Nc1nccc(-c2cccs2)n1)c1cccs1	0.76	1.6
Cc1ccc2cccc(Oc3nnnn3-c3ccccc3)c2n1	0.49	2.6
CCN(CC)c1ccc(NS(=O)(=O)c2ccc(-c3ccc(=O)[nH]n3)o2)c(C)c1	0.27	-1.4
O=C(CCC(=O)Nc1ccc(F)cc1)N/N=C/c1ccc(Br)cc1	0.06	0.06

Assay outcomes from PubChem BioAssay.
